GIV Gai3 FP: blocks GIV peptide binding to rat Galpha-i3; percent of control (FP), % (test concentration not listed); 0.42% of 210,000 active; AID 1224905; Galpha-i3/FITC-GIV peptide fluorescence polarization, 90 min; active compounds read low; scaled: aluminum fluoride 0%, vehicle 100%; P08753;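 active = replicate mean at 85% of control or lower, very high polarization wells dropped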;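 note: lower values mean more displacement of the GIV peptide from Galpha-i3; wells of about 15 µL received 100 nL stock; the first replicate is given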
Target sequence (P08753 whole entry, looked up): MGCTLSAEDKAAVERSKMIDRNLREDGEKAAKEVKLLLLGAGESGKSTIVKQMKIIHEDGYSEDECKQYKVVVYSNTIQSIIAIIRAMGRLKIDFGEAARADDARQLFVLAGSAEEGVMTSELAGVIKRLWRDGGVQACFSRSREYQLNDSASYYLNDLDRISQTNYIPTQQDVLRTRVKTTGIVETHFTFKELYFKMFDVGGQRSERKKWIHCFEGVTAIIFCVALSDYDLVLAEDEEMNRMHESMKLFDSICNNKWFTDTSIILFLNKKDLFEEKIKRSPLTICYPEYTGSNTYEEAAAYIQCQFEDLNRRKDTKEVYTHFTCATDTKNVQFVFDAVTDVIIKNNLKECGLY
* = called active by the depositor. A portion of the library. The share of hits here may be higher or lower than overall.

SMILES	GIV Gai3 FP
CCOc1ccc(-c2[nH]nc3c2C(c2ccc(OCC(N)=O)c(OC)c2)C(C#N)=C(N)O3)cc1 (centres undefined)	104.2
Cc1onc(-c2ccccc2Cl)c1C(=O)Nc1sc2c(c1C(N)=O)CCCC2	112.1
CCc1nc2sc(C(C)C)nn2c1S(=O)(=O)N1CCCCC1	103.5
COC(=O)c1ccccc1NC(=O)NCc1ccnc(N2CCCCC2)c1	107.1
FC(F)(F)C1=Nc2cccc3cccc(c23)N1	98.5
O=C(NCc1ccc2c(c1)OCO2)c1nc2nc(-c3ccc(F)cc3)cc(C(F)(F)F)n2n1	105.8
Cc1nc(CN2C(=O)COc3cc(S(=O)(=O)N4CCCCC4)c(Cl)cc32)no1	97.6
Cc1ccc(NC(=O)N2CCCc3ccccc32)cc1	96.8
N#CC1(C#N)[C@H](c2ccccc2F)[C@@H](C(=O)c2ccccc2)N2c3ccc(F)cc3C=C[C@@H]21	106.0
CCCOc1ccc(-c2noc(Cc3nc(-c4ccc(OCC)cc4)cs3)n2)cc1	101.2
CCN(CC)CCN1C2=NCCN2c2ccccc21	104.1
COC(=O)c1c(NC(=O)Cn2nc(C)c([N+](=O)[O-])c2C)sc2c1CCC(C(C)(C)C)C2 (centres undefined)	107.8
COc1ccc(-c2ccc(OCCNC(=O)C3c4ccccc4Oc4ccccc43)nn2)cc1	97.4
Cn1c(=O)n(CCC(=O)N2CCCC2)c(=O)c2cc(S(=O)(=O)NC3CCCCC3)ccc21	111.0
COC(=O)C1C(=O)NC(SCC(=O)Nc2ccc(Br)cc2)=C(C#N)C1c1ccccc1[N+](=O)[O-] (centres undefined)	106.8
O=S(=O)(c1ccc2nncn2c1)N(Cc1cc(F)cc(F)c1)c1cc(F)cc(F)c1	103.9
CCc1ccc(-c2csc(Nc3ccccn3)n2)cc1	105.1
CC(C)c1cc(C2CCCN2Cc2ccc(F)cc2)no1 (centres undefined)	98.5
N#CC1=CN(c2ccc3c(c2)CCC3)c2cc(F)ccc2S1(=O)=O	101.7
Cc1c(C)n(-c2ccccc2)c2nc(C(=O)Nc3cccc(Cl)c3)nc(N3CCCC3)c12	107.1
Cn1c(=O)c2c(nc(NC(CO)CO)n2Cc2ccc(Br)cc2)n(C)c1=O	98.7
COC(=O)C1=C(C(=O)OC)SC(=C2C(=S)C(C)(C)N(C(=O)CN3C(=O)c4ccccc4C3=O)c3cc(C)c(C)cc32)S1	111.4
CCCNC(=O)C1CCCN(S(=O)(=O)c2cc(-c3noc(C4CCCC4)n3)cs2)C1 (centres undefined)	105.2
COc1cc(OC)c(OC)cc1/C=C1/N=C(c2cc([N+](=O)[O-])ccc2Cl)OC1=O	110.2
CN(C)c1ccc(-c2nc(-c3ccccc3)c(-c3ccc(Oc4ccccc4)cc3)[nH]2)cc1	113.8

Going on with the list:
SMILES	GIV Gai3 FP
CC(C)(C)c1ccc(OCCCC(=O)Nc2ccc3c(c2)OCCO3)cc1	96.8
COc1cccc(/C=C2\C(=O)NC(=O)N(c3ccc(Br)cc3)C2=O)c1O	121.1
COC(=O)C(NC(=O)c1ccc(Cl)cc1)(Nc1sc2c(c1C#N)CCC(C(C)(C)C)C2)C(F)(F)F (centres undefined)	96.9
COC(=O)CN1C(=O)C2(C(C#N)=C(N)Oc3n[nH]c(-c4cc(OC)ccc4OC)c32)c2ccccc21 (centres undefined)	106.7
CCNC(=O)N1CCCC1c1cc(C(C)C)no1 (centres undefined)	98.7
COc1ccc(N=c2ssc3c2-c2cc(OC)ccc2NC3(C)C)cc1	103.6
Cc1ccc(C2Nc3cccc4cccc(c34)N2)cc1	111.6
CCn1c(=O)n(CC)c2cc(NC(=O)CSc3nnc(-c4cc5ccccc5o4)n3C)ccc21	99.6
Cc1nn(-c2cccc(F)c2)c2sc(C(=O)Oc3ccc(F)cc3)cc12	109.4
Cn1c(CC(=O)Nc2ccccc2C(F)(F)F)c(Sc2ccccc2)c2ccccc21	107.6
Cc1ccc(S(=O)(=O)n2c(SCC(=O)NCCc3ccccc3)nc3ccccc32)cc1	114.0
Cc1sc2cc(C(=O)N3CCC(N4CCCCC4)CC3)[nH]c2c1CN1CCCCC1	98.6
Cc1ccc(C2(c3ccc(C)cc3)CC2C(=O)Nc2ccc(F)cc2)cc1 (centres undefined)	119.6
O=C(CSc1nc(NCc2ccccc2)c2ccccc2n1)NCc1ccco1	109.1
O=C(NCc1ccco1)/C(=C/c1ccc(F)cc1)NC(=O)c1ccccc1	107.7
O=C(c1ccccc1)N1CCN(C(=O)c2cc3cc(Br)ccc3[nH]2)CC1	104.5
CCc1ccc(S(=O)(=O)c2cnc(N3CCN(c4ccc(OC)cc4)CC3)nc2N)cc1	103.9
COc1ccc(N2C(N)=C(C#N)C(c3ccc(OC)c(OC)c3)C3=C2CC(C)(C)CC3=O)cc1 (centres undefined)	111.0
CCc1ccc(C2=C(C)C(N3CCCN(C(=O)C(C)(C)CC)CC3)=NS2(=O)=O)cc1	98.3
Cc1ccc2nc(N3CCCCC3)c(/C=C3\SC(=S)N(CC4CCCO4)C3=O)c(=O)n2c1 (centres undefined)	113.8
CC1CCN(C(=O)C2CCN(c3cncnc3N(C)C)CC2)CC1	102.3
CCOC(=O)N1CCC(NC(=O)C2CCN(c3nc4nc[nH]c(=O)c4s3)CC2)CC1	97.7
CCOC(=O)C1=C(O)/C(=C/c2ccc(N(C)C)cc2)SC1=Nc1ccc([N+](=O)[O-])cc1	103.7
CCOC(=O)CC(=O)CSc1nc(-c2cccs2)cc(C(F)(F)F)c1C#N	109.4
Cc1c(Cl)cccc1NC(=O)CCc1nc(CSc2nc3ccccc3[nH]2)no1	103.4

Continuation.
SMILES	GIV Gai3 FP
O=c1c2cn[nH]c2nc(SCc2cccc(Br)c2)n1-c1ccc(Br)cc1	95.6
CCc1ccc(C2CC(=O)Nc3c2c(C)nn3-c2ccc3nnc(C)n3n2)cc1 (centres undefined)	98.4
CCc1onc(C)c1C1CCCN1Cc1ccc(OC)cc1O (centres undefined)	104.8
O=C(Nc1cc(-c2ccsc2)no1)C1CC1	101.5
CCOc1ccc(C2C(N3C(=O)c4c(Cl)c(Cl)c(Cl)c(Cl)c4C3=O)C(=O)N2c2cc(F)ccc2C)cc1 (centres undefined)	104.7
CCOC(=O)c1c(NC(=O)C(C)Sc2nnc(CNC(=O)c3ccco3)n2-c2ccc(F)cc2)sc2c1CCCC2 (centres undefined)	105.1
CC(NS(=O)(=O)c1cc(-c2nc(C(C)(C)C)cs2)cs1)c1ccccc1 (centres undefined)	103.9
CC(=O)C1=NN(c2ccc(Br)cc2)C2(S1)c1ccccc1C(c1ccc(Cl)cc1)=NN2c1ccccc1 (centres undefined)	104.7
COc1ccccc1/C=C(/NC(=O)c1cccc(C)c1)C(=O)NCCc1c[nH]c2ccccc12	100.1
COc1cccc(NC(=O)C2CCN(c3c(-n4c(C)ccc4C)c(C)nn3-c3ccccc3)CC2)c1	110.6
COc1ccc(C2Nc3c(C)cc(C)cc3[C@H]3OCCC[C@@H]23)cc1 (some centres undefined)	99.6
O=C1/C(=C/c2ccc([N+](=O)[O-])cc2)C=C(c2ccccc2)N1c1ccc2ccccc2c1	108.0
O=C1COc2ccc(S(=O)(=O)Nc3cc(F)ccc3F)cc2N1Cc1noc(C2CCC2)n1	98.7
Cc1ccccc1-n1nnnc1C1(N)CCCC1	102.8
COc1ccc(C2/C(=C(/O)c3ccc(C)cc3)C(=O)C(=O)N2C)cc1OC (centres undefined)	106.8
Cc1ccc(S(=O)(=O)Nc2ccc(C(=O)N3CCCC(C(=O)NC(C)C)C3)cc2)cc1 (centres undefined)	104.9
Cn1c(=O)c2nc(S(=O)(=O)CCC(=O)Nc3cc(Cl)ccc3F)n(C)c2n(C)c1=O	102.2
COc1cccc(N/C(SCc2ccccc2Cl)=C(/C#N)C(=O)NCc2ccccc2)c1	101.8
O=C(NC1CC1)c1cccn2c(-c3ccc(F)cc3)nnc12	103.4
CCCOc1ccc(C2CC(=O)Nc3c2c(C)nn3-c2nc3ccccc3s2)cc1 (centres undefined)	102.5
COc1cc(C2Nc3ccccc3NC3=C2C(=O)CC(c2ccccc2)C3)c(OC)cc1Br (centres undefined)	102.4
O=S(=O)(c1ccc2nc(N3CCN(c4ccccn4)CC3)cnc2c1)N1CCCCC1	101.5
CCCC(=O)N1CCc2c(c(C(=O)N3CCCC(C(=O)Nc4ccccc4)C3)nn2C)C1 (centres undefined)	102.3
Cc1nccn1S(=O)(=O)c1ccc(Cl)c([N+](=O)[O-])c1	108.3
CCCNC(=O)N(C)CCc1noc(C(=O)NCc2ccc3c(c2)OCO3)n1	103.0

Shown field by field: four of the compounds above
CC(=O)C1=NN(c2ccc(Br)cc2)C2(S1)c1ccccc1C(c1ccc(Cl)cc1)=NN2c1ccccc1 (centres undefined)
  GIV Gai3 FP: 104.7

COc1ccccc1/C=C(/NC(=O)c1cccc(C)c1)C(=O)NCCc1c[nH]c2ccccc12
  GIV Gai3 FP: 100.1

COc1cccc(NC(=O)C2CCN(c3c(-n4c(C)ccc4C)c(C)nn3-c3ccccc3)CC2)c1
  GIV Gai3 FP: 110.6

COc1ccc(C2Nc3c(C)cc(C)cc3[C@H]3OCCC[C@@H]23)cc1 (some centres undefined)
  GIV Gai3 FP: 99.6

Reformatted in markdown: entries from further up.
| molecule | GIV Gai3 FP |
| --- | --- |
| CCCNC(=O)C1CCCN(S(=O)(=O)c2cc(-c3noc(C4CCCC4)n3)cs2)C1 (centres undefined) | 105.2 |
| COc1cc(OC)c(OC)cc1/C=C1/N=C(c2cc([N+](=O)[O-])ccc2Cl)OC1=O | 110.2 |

(further entries)
SMILES	GIV Gai3 FP
COc1ccccc1N(CC(O)Cn1c2ccc(Cl)cc2c2cc(Cl)ccc21)S(=O)(=O)c1ccccc1 (centres undefined)	106.4
COc1ccc(-c2csc3c(=O)n(C)cnc23)cc1	104.9
CCOC(=O)N1CCC(NC(=O)CSc2nc3ccccc3n2S(C)(=O)=O)CC1	110.9
CCOc1ccc(C(=O)Nc2ccc3oc(-c4ccncc4)nc3c2)cc1Br	108.3
CCCCCCc1cc2c(-c3ccccc3)cc(=O)oc2cc1OCC(N)=O	109.0
Cc1cc(SCC(=O)Nc2cccc(F)c2)nc2ccc(S(=O)(=O)N3CCCC3)cc12	105.4
CN(Cc1ccc(F)cc1)Cc1cc(=O)n2nc(C3CC3)sc2n1	105.0
CCN1C(=O)c2cccc3c(NC(=O)c4ccc(S(=O)(=O)N(CC(C)C)CC(C)C)cc4)ccc1c23	113.6
CCOc1ccccc1NC(=O)Nc1ccc(-c2nc3ccccc3s2)cc1	102.4
COc1cccc(C2N3CC4(C)CN2CC(C)(C3)C4=O)c1O (centres undefined)	117.2
CN(C1CCCCC1)S(=O)(=O)c1c[nH]c(-c2nnc(C(=O)N3CCCC3)o2)c1	127.6
CC(C)NC(=O)c1ccc(-c2nc3cc(NS(=O)(=O)c4cc(F)ccc4F)ccc3n2C)cc1	96.7
Cc1nc(N2CCN(c3ccccn3)CC2)c2c(C)c(C(=O)Nc3ccc(F)cc3)sc2n1	101.8
CC(=O)Nc1cc2c(cc1[N+](=O)[O-])OCCOCCOc1cc(NC(C)=O)c([N+](=O)[O-])cc1OCCO2	111.7
CCN(CC)C(=O)C1CCCN(c2ncnc3c2cnn3-c2ccc(Cl)cc2)C1 (centres undefined)	102.1
Cc1ccc(C2CC(C(F)(F)F)n3ncc(C(=O)Nc4sc5c(c4C(=O)OC(C)C)CCCC5)c3N2)cc1 (centres undefined)	104.7
Cc1ccc(N(C)S(=O)(=O)c2cc(-c3cc(C(F)(F)F)on3)sc2C)cc1	106.2
CCCN1CCN(C(=O)C2CC(=O)N(c3ccc4c(c3)CCN4C(=O)CC)C2)CC1 (centres undefined)	105.5
CC1(C)CN(CC(=O)N2CCCC2)c2ccc(S(=O)(=O)N3CCN(c4ccccn4)CC3)cc21	101.9
Cc1ccc(N2C(=O)C3C(C2=O)C2(C)c4ccccc4C3(C)c3ccccc32)cc1 (centres undefined)	103.1
S=C(Nc1ccccc1)c1c(-c2ccccc2)c2c3n(c(-c4cccc(Br)c4)nn13)CCCC2	129.6
CCn1c(CN(C)C(=O)NC2CCCCC2)nc2cc(C(=O)N(C)C)ccc21	102.5
COc1ccc(C2(N3CCCCC3)Oc3ccccc3C(C#Cc3ccccc3)=C2C)cc1 (centres undefined)	106.3
O=S(=O)(Nc1ccc(Cl)cn1)c1cc(-c2noc(C3CCCC3)n2)cs1	99.3
CCOC(=O)c1c(C)nc2c(c1-c1ccc(C)cc1)C(=O)c1ccccc1-2	112.2

Next section.
SMILES	GIV Gai3 FP
O=C(NCCN1CCOCC1)c1ccc2nc(-c3ccccc3)c(-c3ccccc3)nc2c1	104.4
O=C(CSc1nc(NCCc2ccccc2)c2ccccc2n1)NCc1ccco1	108.5
Cc1cc(N2CCC(C)CC2)n2nc(CN3CCN(c4ccccn4)CC3)nc2n1	109.9
C=CCn1c(=O)c(=O)n(CC(=O)NCCCN2CCCC2=O)c2ccccc21	109.7
Cc1ccc(-c2nc(CN3CCCC(C(=O)Nc4ccc(C(C)C)cc4)C3)no2)cc1 (centres undefined)	104.0
O=C(c1ccccc1)N1CCN(Cc2cc(=O)n3nc(-c4ccccc4)sc3n2)CC1	102.3
COc1ccc(N(CC(O)CN(Cc2ccccc2)Cc2ccccc2)S(=O)(=O)c2ccccc2)cc1 (centres undefined)	118.6
Cc1ccc(-n2ncc3c(N4CCCCCC4)ncnc32)c(C)c1	100.4
N#CC1=C(N)C(C#N)(C#N)C(c2ccc(Cl)cc2Cl)C2CCCC=C12 (centres undefined)	113.0
COCCCN1CCc2nc(SCc3cccc(Cl)c3)[nH]c(=O)c2C1	98.8
CCOc1ccc(-c2cc3c(=O)n(Cc4nc(-c5cccc(C)c5)no4)ncn3n2)cc1	104.2
Cc1cc(Sc2ccc(NC(=O)C(C)C)cc2)n2ncnc2n1	99.8
Cc1ccc(C2CC(c3cccs3)=NN2C(=O)CSc2nnc(CNC(=O)c3ccc([N+](=O)[O-])cc3)n2C)cc1 (centres undefined)	108.6
O=C1CC(n2c(=S)n(Cc3ccccc3)c3ccccc32)C2COC1O2 (centres undefined)	110.4
Cc1ccc(CNS(=O)(=O)c2c(C)[nH]c(C)c2-c2nnc(C)o2)o1	102.3

Bioassay records: PubChem, ICCB-Longwood Screening Facility, Harvard Medical School
